AID504770: E. coli YBA685 growth inhibition, screen for V. cholerae RctB inhibitors; E. coli YBA685 rctB-dependent plasmid, OD600 growth, 3 h; stronger effect = lower value; actives 0.27% (n = 130,000); z-score (no concentration beside the values);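 active = z-score under -2 on both plates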;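 also: wells of about 30 µL received 100 nL stock; score is relative to mean and SD of the test wells; the first replicate is given; strong numbers were not always called active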
CapD inh: blocks the Bacillus anthracis CapD enzyme | z-score (no concentration beside the values) | purified CapD enzyme, fluorescence intensity read-out; stronger effect = lower value; some hits fall short of the stated cut | AID 492967 | actives 0.23% (n = 140,000);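 active = z-score under -4 in either of two replicates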;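 also: stock transfer was 100 nL into about 40 µL; score is relative to mean and spread of the plate; one replicate is shown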
* marks the source's active call; other numbers are inactive results; nt = no result given; & = joins results of further samples. The list is partial; count on the stated rates, not on these rows.

Start of the listing, in advance:
SMILES	AID504770	CapD inh
CSCc1ccc(C(=O)Nc2ccc(C)cc2O)cc1	-0.95	-1.2
CCc1[nH]nc2c1C1(C(=O)Nc3ccccc31)C(C#N)=C(N)O2 (configuration not stated)	nt	-0.61
N#Cc1ccc(C(=O)N(Cc2ccccc2)c2ccccn2)cc1	0.2	0.86
Cc1c(P(=S)(N2CCOCC2)N2CCOCC2)cc(C#N)n1C	-0.25	nt
NC1=NC(c2ccccc2)n2c(nc(=O)c3ccccc32)N1 (configuration not stated)	-0.5	86
CCCCN(CC)S(=O)(=O)c1ccc(C(=O)Nc2ccccc2-c2nc3ccccc3[nH]2)cc1	0.05	-1.6
O=c1cnnc(NCCN2CCOCC2)[nH]1	0.3	nt

All compounds of this part, from the first entry:
SMILES	AID504770	CapD inh
CSCc1ccc(C(=O)Nc2ccc(C)cc2O)cc1	-0.95	-1.2
CCc1[nH]nc2c1C1(C(=O)Nc3ccccc31)C(C#N)=C(N)O2 (configuration not stated)	nt	-0.61
N#Cc1ccc(C(=O)N(Cc2ccccc2)c2ccccn2)cc1	0.2	0.86
Cc1c(P(=S)(N2CCOCC2)N2CCOCC2)cc(C#N)n1C	-0.25	nt
NC1=NC(c2ccccc2)n2c(nc(=O)c3ccccc32)N1 (configuration not stated)	-0.5	86
CCCCN(CC)S(=O)(=O)c1ccc(C(=O)Nc2ccccc2-c2nc3ccccc3[nH]2)cc1	0.05	-1.6
O=c1cnnc(NCCN2CCOCC2)[nH]1	0.3	nt
COC(=O)c1ccsc1NC(=O)C(C)C	0.45	-0.58
O=C(Cc1ccccc1)O/N=C/c1ccc2c(c1)OCO2	-0.3	0.42
COc1ccc(C(=O)n2cnc3ccccc32)cc1OC	-0.8	1.1
CN(C)C(=Nc1ccc(I)cc1)P(=O)(N(C)C)N(C)C	0.5	nt
O=C(COc1ccccc1O)NCCN1CCOCC1	-0.85	nt
Cc1ccc(CN2CCC(CNC(=O)Cn3c(=O)oc4ccccc43)CC2)cc1	-0.5	0.58
CN1C(=O)CC(C(=O)NCCc2ccccc2)SC1=Nc1ccc(I)cc1 (configuration not stated)	-0.85	-1
COc1ccc(NC(=O)CSc2nc3ccc(OC)cc3[nH]2)c(OC)c1	nt	-0.49
S=c1[nH]nc(-c2ccccc2)n1Cc1ccccc1	nt	-0.5
CCOC(=O)c1cnc(SCC(=O)Nc2ccc(C)cc2Cl)nc1N	0	-0.64
COc1ccc(NC(=O)Cn2c(C(F)(F)F)nc3ccccc32)cc1	-0.9	-0.08
O=C(N=Nc1c(O)n(Cc2ccccc2)c2ccccc12)c1ccccc1O	0.15	-0.015
COc1ccc(C2(C(=O)NC3CCCCC3)CCCC2)cc1OC	-0.6	0.34
CC(C)c1ccc(C=NCCO)cc1	-0.4	1.2
O=c1oc(C23CC4CC(CC(C4)C2)C3)ns1	-0.45	0.17
CC(C)NCC(O)c1cc(O)cc(O)c1 (configuration not stated)	-0.75	77&0.44
COc1ccc(S(=O)(=O)N2CCC(O)(c3cccnc3)CC2)cc1OC	0.15	nt
NC(=O)c1cccc(NC(=O)c2ccccc2I)c1	-1.1	0
O=C1c2cccnc2C(=O)N1Cc1ccc(S(=O)(=O)N2CCCCCC2)cc1	-1.1	0.16
CCOc1ccc(CNC(=O)C2CCN(c3nc4ccccc4[nH]3)CC2)cc1	-0.1	-0.23
Cc1ccccc1-n1c(CSc2ncccn2)nc2ccccc2c1=O	-0.85	-0.54
C/C(=C\C(=O)c1ccc(Cl)cc1)Nc1ccncc1	-1.6	-1.1
O=c1oc(-c2ccco2)nc2sc3c(c12)CCC3	nt	-0.15
O=C1c2ccccc2-c2onc3c(N4CCCC4)cc(Nc4ccc(Cl)cc4)c1c23	nt	-0.38
S=c1sc2c(Cl)ncnc2n1-c1ccccc1	0.1	-2.2
COc1ccc(N2C(=O)C3C4c5ccccc5C(C)(c5ccccc54)C3C2=O)c([N+](=O)[O-])c1 (configuration not stated)	nt	-1
COc1ccc(C(=O)CNc2cccc(F)c2)cc1	-0.25	nt
COc1ccccc1CNC(=O)CSc1nc2ccccc2n1S(=O)(=O)c1cccc([N+](=O)[O-])c1	nt	-0.82
Cc1cccc(-c2noc(CSc3ccccc3)n2)c1	-0.35	-0.49
CC1=C(C(=O)OC2CCCC2)C(c2cc3c(cc2[N+](=O)[O-])OCO3)C2=C(CC(c3ccccc3)CC2=O)N1 (configuration not stated)	nt	1.6
COc1ccc(NC(=O)CN(C)C(=O)c2ccc(S(=O)(=O)N3CCOCC3)cc2)cc1	-0.5	nt
O=c1c2[nH]c(=S)[nH]c2cnn1-c1ccccc1	-0.4	-0.99
COc1cccc(N2C(=O)/C(=C/c3ccc(-c4cc(Cl)ccc4Cl)o3)C=C2c2ccccc2)c1	nt	-0.72
COc1ccc(CCNC(=O)c2ccc3nc(-c4ccccc4)c(-c4ccccc4)nc3c2)cc1OC	nt	-0.25
CC(C)(C)NC(=O)NC(=O)CN1CCN(S(=O)(=O)/C=C/c2ccccc2)CC1	0.45	nt
COc1ccc(Cn2c(=O)[nH]c3cc(C(=O)NC4CCCCC4C)ccc32)cc1 (configuration not stated)	2.5	nt
O=C(Nc1cccc(NC(=O)c2cccc(S(=O)(=O)N3CCCCC3)c2)c1)c1ccc(Br)cc1	nt	0.22
COC(=O)CC1C(=O)NCCN1C(=O)c1ccc2c(c1)S(=O)(=O)c1ccccc1C2=O (configuration not stated)	-1	nt
Clc1ccc(Cc2ccc(SCc3ccccc3)nn2)c(Cl)c1	nt	-1.4
N#Cc1c(Cl)cccc1NCC1(N2CCOCC2)CCCCC1	0.05	nt
CCOC(CNC(=O)c1cnn2c(C)c(Cc3cccc(Br)c3)c(C)nc12)OCC	nt	12
O=c1c2ccccc2c(=O)c2c1c(NCc1ccccc1)cc1oc3ccccc3[nH]c12	nt	-0.29
O=C1CC(c2cccs2)SC(N(c2ccccc2)c2ccccc2)=N1 (configuration not stated)	-0.7	20
(further entries)
SMILES	AID504770	CapD inh
CC(=O)Nc1ccc(C2Nc3cc(C)ccc3O2)cc1 (configuration not stated)	0.45	5.7
O=C(OCn1nnc2ccccc2c1=O)C1(c2ccc(Cl)cc2)CCCC1	-0.1	0.2
O=C1CC[C@@]2(O)[C@H]3Cc4ccc(O)c5c4[C@@]2(CCN3CC2CC2)[C@H]1O5	nt	-0.32
O=C(O)c1ccc(CS)cc1	0.1	nt
Cc1ccc(N2CC(C(=O)Nc3c(C(N)=O)oc4ccccc34)CC2=O)cc1 (configuration not stated)	-0.9	nt
Cc1cccc(NC2=NC(=S)N(c3ccccc3)C23CCCC3)c1	nt	-0.22
Cc1onc(-c2c(Cl)cccc2Cl)c1C(=O)NCCO	-0.65	0.66
O=C(CSc1nc2ccccc2c(=O)n1CC1CCC(C(=O)NCCc2ccccc2)CC1)NCc1ccco1 (configuration not stated)	nt	-0.28
NC(=O)C1CCCc2c1[nH]c1ccccc21 (configuration not stated)	1.6	0.58
Cc1ccc(C(=O)OCC(=O)N(C)c2ccccc2)s1	-0.15	-1.7
COc1c(C(=O)NC(C(=O)OCc2ccccc2)C(C)C)cnc2c1c(C)nn2C (configuration not stated)	nt	-0.44
C#CCn1c(=NC(=O)C(C)C)sc2c(C)cc(C)cc21	0.05	nt
N#Cc1cnn(-c2ccccc2)c1NC(=O)CN(Cc1ccccc1)Cc1ccccc1	0.25	0.32
CCNCc1c(C(=O)O)c(C)n(Cc2ccc(Cl)cc2)c1C	-0.85	-0.22
COc1ccc(-c2cc(C(=O)N3CCCC3)c3ccccc3n2)cc1	0	nt
CN(C(=O)COc1ccc(C#N)cc1)C1CCCCC1	-1.1	-0.99
CC(N)Cc1ccco1 (configuration not stated)	0.2	nt
N#CCCN1C(=O)C2(OCCO2)c2ccccc21	nt	-0.035
O=C(Nc1ccc(F)cc1)OCc1ccc(Sc2ccccc2)c([N+](=O)[O-])c1	nt	-0.8
O=C(NC1CCCCCCC1)C1CCCN(S(=O)(=O)c2cnc[nH]2)C1 (configuration not stated)	-0.05	0.41
CC1CCN(CC(=O)Nc2nccs2)CC1	-0.65	-0.45
CN1CCCN(C(=O)c2ccc(S(=O)(=O)N(C)C)cc2)c2nc3ccccc3nc21	0.05	nt
C=CCC(C(=O)OC)N1CCCCC1 (configuration not stated)	0.15	nt
COc1ccc(NC(=O)CSc2cn(Cc3ccc(Cl)cc3)c3ccccc23)cc1	1.9	0.62
CCC(CC)C(=O)Nc1cccc(NC(C)=O)c1	-1	0.26
CSc1nc(C)cc(SCCOc2ccccc2)n1	0.15	0.35
CCN1CCN(c2ncnc3c2sc(=S)n3-c2ccccc2)CC1	1.6	-0.53
COc1ccc(CCNC(=O)c2ccc(N(C)S(C)(=O)=O)cc2)cc1	1.1	-0.89
CCOC(=O)N1CCN(C(=O)C(CCCN(C(=O)OC(C)(C)C)/C(N)=N/C(=O)OC(C)(C)C)NC(=O)OC(C)(C)C)CC1 (configuration not stated)	nt	-0.89
CCn1c(COc2ccccc2C(C)C)nnc1SCc1nc2ccccc2c(=O)[nH]1	-0.3	nt

Reformatted with bars between the fields: 5 of the compounds above
SMILES | AID504770 | CapD inh
C=CCC(C(=O)OC)N1CCCCC1 (configuration not stated) | 0.15 | nt
COc1ccc(NC(=O)CSc2cn(Cc3ccc(Cl)cc3)c3ccccc23)cc1 | 1.9 | 0.62
CCC(CC)C(=O)Nc1cccc(NC(C)=O)c1 | -1 | 0.26
CSc1nc(C)cc(SCCOc2ccccc2)n1 | 0.15 | 0.35
CCN1CCN(c2ncnc3c2sc(=S)n3-c2ccccc2)CC1 | 1.6 | -0.53

(list continues)
SMILES	AID504770	CapD inh
Oc1c(N=Nc2ccc3c(c2)OCO3)sc2ccccc12	-0.3	nt
CCCc1cc(=O)n2[nH]c(-c3ccc(I)cc3)cc2n1	0.85	0.34
COc1ccc(CCNC(=O)C2CC2(c2ccc(C)cc2)c2ccc(C)cc2)cc1OC (configuration not stated)	-0.05	-0.48
CCOC(=O)c1c(NC(=O)C(C)Sc2nnc(CNC(=O)c3ccco3)n2C2CCCCC2)sc2c1CCCC2 (configuration not stated)	nt	-0.9
Cc1c(F)cccc1/C=N/NC(=O)c1cc2ccccc2cc1O	nt	-0.34
O=c1[nH]c(C(F)(F)F)nc2ccc3ccccc3c12	-0.15	0.95
Cc1c(C(=O)O)sc2ncn(CC(=O)Nc3cccc(C(F)(F)F)c3)c(=O)c12	nt	0.21
COc1ccc(-c2nn(-c3ccccc3)cc2C(=O)N(C)C)cc1	0.65	0.72
CC(C)(C)c1ccc(C(=O)Nc2cc(C(=O)NC3CCCCNC3=O)ccc2N2CC3CC(C2)c2cccc(=O)n2C3)cc1 (configuration not stated)	nt	-0.45
O=C(NCCCN1CCOCC1)c1cnn2c(C(F)(F)F)cc(-c3ccccc3)nc12	0.2	0.36
c1ccc2c(c1)NC(c1ccc3c(c1)CCO3)n1cccc1-2 (configuration not stated)	1.2	25
CCCOc1ccc(C(=O)N/N=C/c2cn(-c3ccccc3)nc2-c2ccccc2)cc1	nt	0.62
COc1cc2c(C(=O)NC3CCCC(C)C3C)cn(C)c(=O)c2cc1OC (configuration not stated)	-0.95	0.075
FC(F)(F)c1ccccc1-c1nn[nH]n1	nt	0.6
CC(OC(=O)c1ccc2ccccc2c1O)C(=O)N1CCc2ccccc21 (configuration not stated)	-0.55	nt
CCCCNS(=O)(=O)c1ccc2nc(SCCC)[nH]c2c1	-0.25	nt
CCOc1ccccc1C=C1C(=O)NC(=S)NC1=O	nt	4.3
O=C(c1ccc(F)cc1Cl)N1CCN(S(=O)(=O)c2ccccc2OC(F)(F)F)CC1	nt	0.61
CNC(=S)N/N=C/c1cccc([N+](=O)[O-])c1	nt	-0.84
O=C(CCc1ccccc1)NC(c1ccc2c(c1)OCO2)c1ccc2cccnc2c1O (configuration not stated)	nt	-0.67
O=C(CSC(=S)N1CCOCC1)c1cc(Br)cc(Br)c1O	0.55	-0.27
Cc1nc(/C=C(/N)C#N)cn1-c1ccccc1	-1.8	3.7
Cc1cccc(C(=O)N2CCC(C)CC2)c1	0.35	nt
CC1(C)N=C(C(=O)c2ccccc2)N(O)C1(C)O (configuration not stated)	0.3	-0.11
CC(C)COc1ccc(S(=O)(=O)n2cc(F)c(=O)[nH]c2=O)cc1	0.35	0.095
COc1ccc(/C=C2\CCC(C3CCCC3)C2=O)cc1Cn1cccn1 (configuration not stated)	-0.15	0.21
O=C1CCC(C(=O)OCC(=O)Nc2ccc(N3CCOCC3)cc2)=NN1	0.05	nt
O=C(CSc1nc2ccccc2c(=O)n1-c1ccccc1F)NC1CC1	0.9	-0.05
CC1COc2c(N3CCN(C)CC3)c(F)cc3c(=O)c(C(=O)N4CCN(c5ncccn5)CC4)cn1c23 (configuration not stated)	0	nt
CN1CCN(CCCN2c3ccccc3Sc3ccc(C(F)(F)F)cc32)CC1	-0.15	-0.06&-0.16
C=CCn1c(Cl)c(/C=N/NC(N)=O)s/c1=N\S(=O)(=O)c1cccs1	-0.95	nt
N#C/C(=C\c1ccccc1[N+](=O)[O-])c1nc(-c2cc3c(ccc4ccccc43)oc2=O)cs1	nt	0.22
CCCCC1SC(=Nc2ccccc2)N(S(=O)(=O)c2ccccc2)C1=O (configuration not stated)	nt	0.41
CC(=O)N1CCOc2cc(S(=O)(=O)N3CCCCC3C)ccc21 (configuration not stated)	-1.7	-0.17
COC(=O)C1=CN(Cc2ccc(OC)c(OC)c2)C=C(C(=O)OC)C1c1cccc(Oc2ccccc2)c1	nt	51
CCCC1NC(=S)N(c2ccccc2)N1 (configuration not stated)	0.35	0.14
Cc1ccc(Cn2ccsc2=NC(=O)CSc2nnc(-c3ccc(Cl)cc3)o2)cc1	0.25	nt
Oc1ccc2ccccc2c1CN1CCOCC1	-0.85	nt
CNC(=O)C1CCC(CNS(=O)(=O)c2ccc(C)cc2)CC1 (configuration not stated)	-0.4	-0.46
